Source: PubChem BioAssay (National Center for Advancing Translational Sciences (NCATS))
HPGD block: qHTS Assay for Inhibitors of HPGD (15-Hydroxyprostaglandin Dehydrogenase); 15-hydroxyprostaglandin dehydrogenase [NAD(+)] (Homo sapiens), P15428; Potency, µM, for the others: at the highest dose activity change, negative = inhibition, actives largely listed as inhibitors; 4.3% of 150,000 active; purified HPGD, NADH fluorescence kinetic, PGE2 substrate; active = well fitted inhibition curve with a large enough effect (not every such curve was filed as active); inconclusive = small, poorly fitted or top-dose-only effect, or another doubt; inactive = no such curve, though single readings can be large or run the other way;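 note: top concentration of the series not given in the record; plate controls included wells without enzyme; inactives centre near -10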
Target sequence (P15428 whole entry, looked up): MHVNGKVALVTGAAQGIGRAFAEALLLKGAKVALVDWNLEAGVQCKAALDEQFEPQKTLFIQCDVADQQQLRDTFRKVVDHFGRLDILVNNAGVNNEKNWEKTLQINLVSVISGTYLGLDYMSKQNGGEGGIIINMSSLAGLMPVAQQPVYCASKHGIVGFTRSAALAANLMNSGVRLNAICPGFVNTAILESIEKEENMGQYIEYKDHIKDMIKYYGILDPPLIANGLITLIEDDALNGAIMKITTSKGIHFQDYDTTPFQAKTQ
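20 nM HPGD preincubated 15 min at room temperature with compound in 50 mM Tris-HCl pH 8, 0.01% Tween 20. Started with 1 mM NAD+ and 30 uM prostaglandin E2; NADH fluorescence (360/450 nm) read 5 times over 30-s intervals, last minus first.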
An asterisk follows results filed as active; u = inconclusive. % is set by controls: 0 for no effect and ±100 for the full control effect; potency is the fitted concentration of half-maximal effect.

SMILES | HPGD block
Clc1cccc(/C=N/Nc2nc(Cl)nc3ccccc23)c1 | u
COc1ccc(CCNC(=O)COC(=O)C2CCCCC2)cc1 | -15%
Nc1[nH]c(N=NC(=O)c2ccc(F)cc2)c2ccccc12 | u
CC(C)=CC(=O)Nc1ccc(Br)cc1 | -12%
O=C(CSc1cccc[n+]1[O-])Nc1cc(S(=O)(=O)N2CCOCC2)ccc1N1CCOCC1 | -5%
O=C(Nc1ccccc1)Nc1ccccc1C(=O)NCc1ccco1 | -6%
CCN(CC)CC(C)OC(=O)COc1ccc(OC)cc1 (stereo not drawn) | 2%
CCCCC[C@H](O)/C=C\[C@H]1[C@H](C/C=C\CCCC(=O)O)[C@@H](O)C[C@H]1O (tested in a mixture with another compound) | u
O=C(COc1ccccc1Cl)Nc1ccc2c(c1)OCCO2 | -17%
COc1ccc(-c2cc(C(F)(F)F)nc(SCC(=O)Nc3sc4c(c3C#N)CCC4)n2)cc1 | u
Cc1cccc(C2CC(c3ccccc3)Nc3nc(N)nn32)c1 (stereo not drawn) | -26%
COc1cc(C(C(=O)NC(C)(C)C)N(C(=O)CNC(=O)c2cccs2)c2ccc(C(C)C)cc2)cc(OC)c1OC (stereo not drawn) | -18%
Cc1ccccc1CCN(C(=O)Cn1nnc2ccccc21)C(C(=O)NCC1CCCO1)c1nc2ccccc2n1C (stereo not drawn) | -14%
C=CCN(C(=O)CNS(=O)(=O)c1ccccc1)C(C(=O)NCCOC)c1ccncc1 (stereo not drawn) | -14%
Cn1cc(Cl)c(C(=O)Nc2nc3ccccc3s2)n1 | -21%
O=C(NCC(=O)N(c1ccccc1)C(C(=O)NC1CCCC1)c1cccnc1)c1cccs1 (stereo not drawn) | -4%
COc1ccc(S(=O)(=O)CC(O)CN2CCCC2=O)cc1 (stereo not drawn) | -10%
COc1ccc(-c2nc(C#N)c(NCCc3ccccc3)o2)cc1OC | u
COc1ccc2ccc3c(c2c1)N=CC1(O3)N(C)c2ccccc2C1(C)C (stereo not drawn) | u
Cc1c(N(C)C)nc2ccccc2c1N | -6%
C[C@@]12CC[C@@H]3c4ccc(O)cc4CC[C@H]3[C@H]1C[C@@H](O)[C@H]2O | 4%
Clc1ccc(-c2nnc(CSc3nnc(-c4cccs4)o3)o2)cc1 | -12%
Cc1ccc(S(=O)(=O)N2CCN(CC(=O)N/N=C\c3ccc(Cl)c([N+](=O)[O-])c3)CC2)cc1 | -2%
Cc1nc2ccc(S(=O)(=O)NCC(=O)N3CCN(c4ccccn4)CC3)cc2s1 | -5%
CC(=O)c1sc(N)c(C(=O)OC(C)C)c1C | -10%

Gathered by group: the entries above with a halogen
SMILES | HPGD block
Clc1cccc(/C=N/Nc2nc(Cl)nc3ccccc23)c1 | u
Nc1[nH]c(N=NC(=O)c2ccc(F)cc2)c2ccccc12 | u
CC(C)=CC(=O)Nc1ccc(Br)cc1 | -12%
O=C(COc1ccccc1Cl)Nc1ccc2c(c1)OCCO2 | -17%
COc1ccc(-c2cc(C(F)(F)F)nc(SCC(=O)Nc3sc4c(c3C#N)CCC4)n2)cc1 | u
Cn1cc(Cl)c(C(=O)Nc2nc3ccccc3s2)n1 | -21%
Clc1ccc(-c2nnc(CSc3nnc(-c4cccs4)o3)o2)cc1 | -12%
Cc1ccc(S(=O)(=O)N2CCN(CC(=O)N/N=C\c3ccc(Cl)c([N+](=O)[O-])c3)CC2)cc1 | -2%

Following part.
SMILES | HPGD block
O=C(CS(=O)(=O)Cc1ccccc1)Nc1ccc(Cl)cn1 | -6%
Cc1oc(-c2cccc(Cl)c2)nc1CN1CCCC(C(=O)NCc2ccco2)C1 (stereo not drawn) | -24%
COc1ccnc(N=CNOCc2ccc(F)cc2Cl)c1C#N | -15%
COC(=O)c1ccc(OC(=O)c2ccccc2F)cc1 | -12%
Cn1nc(-c2ccc(OCC(=O)Nc3cccnc3)cc2)c2ccccc2c1=O | -24%
CCOC(=O)C1CCN(Cc2nc3ccccc3c(=O)n2-c2ccc(OCC)cc2)CC1 | -12%
CN1CCN(/N=C/c2nc(-c3cccc([N+](=O)[O-])c3)n3ccccc23)CC1 | -12%
Cc1ccc(C(=O)CSc2nnc(-c3ccco3)n2CC2CCCO2)cc1 (stereo not drawn) | -20%
CN1CCCC(n2nc(Cc3ccc(Cl)cc3)c3ccccc3c2=O)CC1 (stereo not drawn) | 5%
Cc1ccc2[nH]c3c(NCCN4CCOCC4)ncnc3c2c1 | -15%
O=C(CN1c2cccc3cccc(c23)S1(=O)=O)Nc1cccc(S(=O)(=O)N2CCOCC2)c1 | u
CS(=O)(=O)Nc1cccc(-c2nccc(-n3ccnc3)n2)c1 | 18µM*
CCc1nc(SCC(=O)NCc2ccco2)c2c(=O)n(C)c(=O)n(C)c2n1 | -7%
CCC(C)n1c(/C=C/c2ccccc2)nc2ccccc21 (stereo not drawn) | u
O=C(Nc1ccc(Cl)cc1)c1csc(-c2ccccc2)n1 | -14%
COc1ncc2nc(-c3ccc(Cl)cc3)c(=O)n(CCc3ccccc3)c2n1 | -4%
COc1ccc(OC)c(S(=O)(=O)NCc2cn3c(C)csc3n2)c1 | -9%
O=C(OC1CCCCC1)c1ccc(NC(=O)C2CCCCC2)cc1 | -3%
COc1ccccc1NC(=O)c1ccccc1NS(=O)(=O)N1CCCC1 | -11%
Cc1sc2ncnc(SC(C)C(=O)N3c4ccccc4Sc4ccccc43)c2c1C (stereo not drawn) | -16%
O=C(C1CCCN(S(=O)(=O)c2cccc3nonc23)C1)N1CCC(Cc2ccccc2)CC1 (stereo not drawn) | -12%
O=C(N/N=C/c1ccc(Br)s1)c1ccccn1 | -25%
Cc1csc2ncc(C(=O)NCCc3ccccc3)c(=O)n12 | u
CC12CN(C(=O)c3ccccc3)C3(C#N)CC1CCC23C (stereo not drawn) | -6%
CCCCn1c(SCc2cc(=O)[nH]c3ccccc23)nc2c1c(=O)n(C)c(=O)n2C | -4%

The closing 7 records of the section before lead into the next:
SMILES | HPGD block
COc1ccccc1NC(=O)c1ccccc1NS(=O)(=O)N1CCCC1 | -11%
Cc1sc2ncnc(SC(C)C(=O)N3c4ccccc4Sc4ccccc43)c2c1C (stereo not drawn) | -16%
O=C(C1CCCN(S(=O)(=O)c2cccc3nonc23)C1)N1CCC(Cc2ccccc2)CC1 (stereo not drawn) | -12%
O=C(N/N=C/c1ccc(Br)s1)c1ccccn1 | -25%
Cc1csc2ncc(C(=O)NCCc3ccccc3)c(=O)n12 | u
CC12CN(C(=O)c3ccccc3)C3(C#N)CC1CCC23C (stereo not drawn) | -6%
CCCCn1c(SCc2cc(=O)[nH]c3ccccc23)nc2c1c(=O)n(C)c(=O)n2C | -4%
C=CCn1c(SCc2c(C)noc2C)nc2sc(C)c(C)c2c1=O | -11%
O=C(N/N=C/c1ccc([N+](=O)[O-])cc1)c1ccc2nc[nH]c2c1 | -10%
COc1ccc(C2(C(=O)NCC3CCCO3)CCOCC2)cc1 (stereo not drawn) | 0%
COc1cc(CNc2ccc(CNc3ncn[nH]3)cc2)ccc1OCC(=O)NC(C)(C)C | -4%
O=C(NC(NNc1ccc([N+](=O)[O-])cc1)(C(F)(F)F)C(F)(F)F)c1ccc(Cl)cc1 | 16µM*
CC(=O)N1c2c(cc(Br)cc2S(=O)(=O)NCC2COc3ccccc3O2)CC1C (stereo not drawn) | -6%
CCCCCCC(=O)NCC(=O)OCC(=O)c1ccccc1 | -4%
CCNC(=O)COn1c(SCC(=O)NCC)nc2ccccc2c1=O | -3%
COc1ccc(-c2csc(NC(=O)COc3ccc(N(C)S(=O)(=O)c4ccc(C)cc4)cc3)n2)cc1 | -13%
Cc1ccccc1C1=NC(C(F)(F)F)(C(F)(F)F)c2c(n(C)c(=O)n(C)c2=O)N1 | -14%
N/C(=N\N=C\c1ccc2c(c1)OCO2)c1nonc1N | -14%
O=C(c1ccc2nc(-c3ccco3)c(-c3ccco3)nc2c1)N1CCN(c2ncccn2)CC1 | -30%
Cc1nc2ncnn2c(C)c1CCC(=O)NCCC1=CCCCC1 | 2%
FC(F)(F)c1cc(C(F)(F)F)c2ccc(N3CCN(c4ccc(Cl)cc4)CC3)nc2n1 | -6%
C=CCN(CC=C)C(=S)Nc1ccccc1 | -18%
CC(C)c1nc(-c2c(N)n(C)c(=O)n(C)c2=O)sc1C(=O)C(C)(C)C | 2%
Cc1c(NC(=O)/C(C#N)=C/c2ccc(-c3ccc(Cl)c(Cl)c3)o2)c(=O)n(-c2ccccc2)n1C | -10%
CCOC(=O)C1=C(c2ccccc2)NC(=S)NC1c1ccc(C)c([N+](=O)[O-])c1 (stereo not drawn) | -18%
CC(C)=C1C2CCC1C1C(=O)N(c3nc(-c4ccc(C(C)C)cc4)c(C)s3)C(=O)C21 (stereo not drawn) | -7%
COCCCNC(=O)CN(c1cccc(Cl)c1)S(C)(=O)=O | -9%
Cn1c(CSCc2ccc(F)cc2)nnc1SCC(=O)N1CCN(c2ccccc2)CC1 | -20%
CCN(CC)S(=O)(=O)c1cccc(-c2nnc(SC(C)C(=O)NCCC3=CCCCC3)o2)c1 (stereo not drawn) | -12%
CN1C=CC(=C2C(=O)c3ccccc3C2=O)C=C1 | -19%
CC1CCCN(c2ccc(C(=O)Nc3ccc4c(c3)OCO4)cc2[N+](=O)[O-])C1 (stereo not drawn) | -11%
O=C(NCC1COc2ccccc2O1)c1ccc(NC(=O)C2CCCO2)cc1 (stereo not drawn) | -20%
(listing goes on)
SMILES | HPGD block
COc1cccc(-c2noc(C3CCCN(C(=O)Cc4ccccc4)C3)n2)c1 (stereo not drawn) | -1%
CN=c1scc(C)n1/N=C/c1ccc2c(c1)OCO2 | -3%
CCOc1cc(/C=N/N=C(N)N)ccc1OCc1ccc(Cl)cc1 | -4%
COC(=O)c1c(F)c(F)c(NCCO)c(F)c1F | -10%
CCCCS(=O)(=O)c1sc2nc(C)cc(C)c2c1N | 2.8µM*
Cc1nc(-c2ccccn2)sc1C(=O)Nc1ccc(Cl)c(Cl)c1 | u
O=P(O)(CCc1ccccn1)CN1CCOCC1 | -8%
CC1CC(=O)Nc2ccccc2N1S(=O)(=O)c1ccc(Br)cc1 (stereo not drawn) | -9%
CC1Cc2cc(/C(O)=C3/C(=O)C(=O)N(Cc4ccco4)C3c3cccs3)ccc2O1 (stereo not drawn) | -21%
Cc1cccc(C)c1NC(=O)CN1CCN(CCCC(c2ccc(F)cc2)c2ccc(F)cc2)CC1 | -3%
Cc1ccc2cc(CN(Cc3nnnn3C3CCCCC3)CC3CCCO3)c(=O)[nH]c2c1 (stereo not drawn) | -12%
Cc1cc(NC(=O)CSc2nc3ccccc3c(=O)n2-c2ccccc2)no1 | -28%
NC(=NCc1ccc(Cl)c(Cl)c1)NC(=O)c1nc(Cl)c(N)nc1N | u
COC(=O)c1ccc(Oc2coc3cc(OCc4cnn(-c5ccccc5)c4)ccc3c2=O)cc1 | -1%
Cc1ccccc1Nc1c(-c2ccncc2)nc2ccc(Br)cn12 | -5%
COc1ccc2[nH]c(=O)c(CN(CCc3ccccc3)C(C)=O)cc2c1 | -25%
CCN(CC)CCNc1c2c(c(C#N)c3nc4ccccc4n13)CCCC2 | -1%
CNC(=O)c1cc(C)c(-c2ccccc2)s1 | u
O=C(/C=C/c1ccccc1)NC(NC(=S)Nc1cccc(O)c1)C(Cl)(Cl)Cl (stereo not drawn) | -16%
CC1=C(C(=O)Nc2ccccc2)C2(CCCCC2)C(C#N)=C(SCC(N)=O)N1 | -12%
O=c1[nH]c(/C=C/c2ccccc2[N+](=O)[O-])nc2ccccc12 | -4%
COC(=O)C1=C(C)NC(=O)C1(NS(=O)(=O)c1ccc(C)cc1)C(F)(F)F (stereo not drawn) | -3%
CCOc1ccc(N2C(=O)CS/C2=N/NC(=O)COc2ccc3ccccc3c2)cc1 | -4%
CN(Cc1ccccc1)Cc1nc2c(c(=O)n(C)c(=O)n2C)n1Cc1ccccc1Cl | -8%
CC1CCCCN1Cc1cnc(Cl)s1 (stereo not drawn) | -2%
Remaining list, next part.
SMILES | HPGD block
CCN1C(=O)N(c2ccc(Cl)cc2)C(C)=CC1(C)C | -5%
CC(NC(=O)C(=O)NN=C1CCCCCCC1)c1ccccc1 (stereo not drawn) | -14%
O=C(CNC(=O)c1cccc(F)c1)OCc1cc(=O)n2cc(Br)ccc2n1 | -10%
CCOc1ccc(-c2nnc(NC(=O)c3ccc(OCC(C)C)c(OC)c3)o2)cc1 | -7%
Clc1ccc(-n2nnnc2CN2CCOCC2)cc1Cl | 1%
O=C(OCC(=O)N1CCC(Cc2ccccc2)CC1)c1ccc[nH]c1=O | -18%
CCC(C)C(NC(C)=O)C(=O)NC(=O)NC(c1ccccc1)c1ccccc1 (stereo not drawn) | 2%
COc1ccc(NC(=O)Nc2c(C)n(-c3ccccc3)c(=O)n2C)cc1OC | 1%
CN(Cc1ccccc1)C(=O)CCc1ccccc1 | -15%
COc1ccccc1N1CCc2c(C)nc3c(OC)cccc3c21 | -8%
Cc1ccc(CC(=O)O/N=C(\N)c2cccc([N+](=O)[O-])c2)cc1 | -7%
O=C(Cc1ccc(Cl)cc1)NN1C(=O)c2ccccc2C1=O | 0%
CSCCC(NS(=O)(=O)c1ccc(Cl)cc1)C(=O)OCc1c(Cl)cccc1Cl (stereo not drawn) | 2%
Cc1csc(NC(=O)C2CCCN(S(=O)(=O)c3cccnc3)C2)n1 (stereo not drawn) | -9%
CCCCN1C(=O)c2ccc(C(=O)Nc3cccc(C)c3C)cc2C1=O | -13%
COCCNC(=O)Cn1c(=O)n(Cc2ccco2)c(=O)c2ccccc21 | -19%
Cc1ccc(NC(=O)C2CC(=O)NC(N3CCCCC3)=N2)cc1Cl (stereo not drawn) | -14%

Some of the entries above, reformatted:
HPGD block,SMILES
-5%,CCN1C(=O)N(c2ccc(Cl)cc2)C(C)=CC1(C)C
-9%,Cc1csc(NC(=O)C2CCCN(S(=O)(=O)c3cccnc3)C2)n1 (stereo not drawn)

A portion of the library (hit frequency here may not be typical).
